STAT3 SMM: STAT3 binders, primary screen, biochemical, small molecule microarray, single point, set 2. calls only. His-STAT3 binding, anti-His fluorescence. actives 0.2% (n = 17,000). AID 624138, 2012. Signal transducer and activator of transcription 3 (Homo sapiens), P40763;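 active = compounds whose four printed spots each show fluorescence over background unusually high for their array block, chance value under 7%; compounds were printed on slides so no solution concentration is given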;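 note: about 2 pmol printed per array spot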
Target sequence (P40763 whole entry, looked up): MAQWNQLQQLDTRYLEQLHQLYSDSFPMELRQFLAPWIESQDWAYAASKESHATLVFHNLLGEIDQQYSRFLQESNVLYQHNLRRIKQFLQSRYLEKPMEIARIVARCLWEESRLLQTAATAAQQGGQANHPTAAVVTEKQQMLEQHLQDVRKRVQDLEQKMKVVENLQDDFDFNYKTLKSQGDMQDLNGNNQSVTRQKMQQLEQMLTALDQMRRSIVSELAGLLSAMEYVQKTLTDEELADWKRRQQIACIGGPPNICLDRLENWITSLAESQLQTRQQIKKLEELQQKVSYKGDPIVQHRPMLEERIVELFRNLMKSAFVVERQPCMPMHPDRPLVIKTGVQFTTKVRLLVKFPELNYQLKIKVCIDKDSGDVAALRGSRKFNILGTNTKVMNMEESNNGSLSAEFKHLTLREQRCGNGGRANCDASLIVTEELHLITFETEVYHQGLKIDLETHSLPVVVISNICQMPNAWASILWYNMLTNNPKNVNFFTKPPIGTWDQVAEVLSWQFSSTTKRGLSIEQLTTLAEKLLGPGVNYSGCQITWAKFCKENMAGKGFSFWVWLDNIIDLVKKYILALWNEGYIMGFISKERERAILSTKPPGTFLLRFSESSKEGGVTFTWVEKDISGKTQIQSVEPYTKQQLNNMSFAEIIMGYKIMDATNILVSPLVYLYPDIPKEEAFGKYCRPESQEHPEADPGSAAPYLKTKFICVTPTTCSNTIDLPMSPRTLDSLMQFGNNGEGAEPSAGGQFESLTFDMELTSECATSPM
mut p53 SMM: binders of human mutant p53, primary screen, biochemical, small molecule microarray, anti-GST fluorescence; mutant tumor protein p53 (GST-tagged), Homo sapiens; small molecule microarray binding; calls only; actives 0.4% (n = 17,000); AID 624136, 2012;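 active = compounds whose four printed spots each glow above background more than chance allows, each with a p-value under 7%; compounds were printed on slides so no solution concentration is given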;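 note: about 2 pmol printed per array spot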
ID4 SMM: binders of human ID4 protein, primary screen, biochemical, small molecule microarray, single point; DNA-binding protein inhibitor ID-4 (Homo sapiens), P47928; Flag-ID4 binding, fluorescence F/B; calls only; actives 1.2% (n = 31,000); AID 624137, 2012;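 active = spot signal over background at p below 0.07 in all four prints; compounds were printed on slides so no solution concentration is given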;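 note: a binder raises fluorescence above local background on the spot; about 2 pmol printed per array spot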
Target sequence (P47928 whole entry, looked up): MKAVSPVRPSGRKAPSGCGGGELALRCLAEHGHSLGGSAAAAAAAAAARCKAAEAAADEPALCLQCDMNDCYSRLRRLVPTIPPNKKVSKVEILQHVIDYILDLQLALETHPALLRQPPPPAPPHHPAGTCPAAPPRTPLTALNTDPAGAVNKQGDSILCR
Myc binder: binders of human c-Myc, primary screen, biochemical, small molecule microarray, anti-His fluorescence | His-c-Myc binding | calls only | actives 1.5% (n = 17,000) | Myc proto-oncogene protein (Homo sapiens), P01106;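 active = spot fluorescence over background with P-value below 7% in all four replicate spots, showing protein binding; compounds were printed on slides so no solution concentration is given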;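 note: score is binary with 100 for all four spots passing and 0 otherwise; about 2 pmol printed per array spot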
Calls only; i = inactive; nt = not tested or not shown; + = active, no number. An excerpt. The share of hits here may be higher or lower than overall.

SMILES	STAT3 SMM	mut p53 SMM	ID4 SMM	Myc binder
COc1cc(OC2OC(COC3OCC(O)(CO)C3O)C(O)C(O)C2O)c2c(-c3ccc(O)c(O)c3)cc(=O)oc2c1 (stereo unspecified)	i	i	i	i
Cc1ccc(S(=O)(=O)Nc2ccc3c(c2)C(=O)N([C@H](C)CO)C[C@@H](C)[C@@H](CN(C)C)O3)cc1	i	i	nt	i
C[C@@H]1CN([C@@H](C)CO)C(=O)c2cccc(N(C)C)c2O[C@H]1CN(C)Cc1ccc(C(F)(F)F)cc1	i	i	i	i
C[C@@H]1CN([C@H](C)CO)C(=O)CCCn2cc(nn2)CO[C@@H]1CN(C)C(=O)c1ccccc1	i	i	i	i
CC(C)NC(=O)N(C)C[C@H]1OCCCC[C@H](C)Oc2ccc(NC(=O)Nc3ccc(F)cc3)cc2C(=O)N([C@H](C)CO)C[C@@H]1C	i	i	i	i
C[C@@H]1CCCCO[C@H](CN(C)S(=O)(=O)c2ccccc2)[C@H](C)CN([C@@H](C)CO)C(=O)c2cc(NS(C)(=O)=O)ccc2O1	i	i	i	i
C[C@H](CO)N1C[C@H](C)[C@H](CN(C)S(=O)(=O)c2ccccc2)OCCCC[C@H](C)Oc2ccc(NC(=O)CCCN(C)C)cc2C1=O	i	i	i	i
C[C@@H]1CN([C@@H](C)CO)C(=O)Cc2cc(NS(C)(=O)=O)ccc2O[C@@H]1CN(C)Cc1ccc(Cl)c(Cl)c1	i	i	i	i
C=CCN1Cc2ccccc2[C@@H]2OC(c3ccc(OCCCO)cc3)=N[C@]2(CC=C)C1=O	i	i	i	i
CC(NC(=O)c1ccccc1N)C(N)=O (stereo unspecified)	i	i	i	i
C[C@H](CO)N1C[C@H](C)[C@H](CN(C)C)Oc2c(NC(=O)Nc3ccc(F)cc3)cccc2C1=O	i	i	i	i
C=C(C(=O)O)C(O)CCC1(C)C2CC3C(C2)C31C (stereo unspecified)	i	i	i	i
COC(=O)c1cccc(NC(=O)Cc2ccccc2[N+](=O)[O-])c1C	i	i	i	i
C[C@@H]1CN([C@H](C)CO)C(=O)c2cc(NC(=O)C3CC3)ccc2O[C@@H]1CN(C)C(=O)Nc1ccccc1	i	i	i	i
C[C@@H]1CCCCO[C@H](CN(C)CC2CCCCC2)[C@H](C)CN([C@@H](C)CO)C(=O)c2cc(NC(=O)NC3CCCCC3)ccc2O1	i	i	nt	i
CC(NC(=O)c1ccc(Cl)cc1)C(=O)NC(C)(C)CO (stereo unspecified)	i	i	i	i
Cc1cc(C)cc(C(=O)N(C)C(Cc2ccc(-c3ccccc3)cc2)C(=O)NC(Cc2c[nH]c3ccccc23)C(=O)O)c1 (stereo unspecified)	i	i	i	i
COC(=O)C(CC#Cc1ccc2c(c1)[C@]1(C(=O)N2)[C@H](c2ccc(OCCO)cc2)N2[C@H](c3ccccc3)[C@H](c3ccccc3)OC(=O)[C@H]2[C@@H]1C(=O)N1CCCCCCC1)C(=O)OC	i	+	i	i
CC(=O)Nc1ccc(C(=O)CSc2nc3ccccc3o2)cc1	i	i	i	i
C[C@@H]1CN([C@H](C)CO)C(=O)Cc2cc(NC(=O)Nc3ccc4c(c3)OCO4)ccc2O[C@@H]1CN(C)S(=O)(=O)c1cccs1	i	i	nt	i
CC(C)NC(=O)N(C)C[C@H]1OCCCC[C@H](C)Oc2ccc(NC(=O)Nc3ccc4c(c3)OCO4)cc2C(=O)N([C@@H](C)CO)C[C@H]1C	i	i	i	i
O=C(CCSc1nc2ccccc2o1)Nc1ccc(F)cc1	i	i	i	i
CCN(CC)C(=O)CSc1nc(N)cc(=O)[nH]1	i	i	i	i
C[C@@H]1CCCCO[C@H](CN(C)C(=O)Nc2ccccc2)[C@H](C)CN([C@@H](C)CO)C(=O)c2cc(NC(=O)CCCN(C)C)ccc2O1	i	i	i	i
Cc1noc(C)c1NC(=O)N(C)C[C@@H]1Oc2ccc(NC(=O)Nc3ccc4c(c3)OCO4)cc2C(=O)N([C@@H](C)CO)C[C@@H]1C	i	i	i	i

An excerpt of these results, with two lines to a compound:
Values run as follows: STAT3 SMM, mut p53 SMM, ID4 SMM, Myc binder
C=CCN1Cc2ccccc2[C@@H]2OC(c3ccc(OCCCO)cc3)=N[C@]2(CC=C)C1=O
 : i, i, i, i
Cc1cc(C)cc(C(=O)N(C)C(Cc2ccc(-c3ccccc3)cc2)C(=O)NC(Cc2c[nH]c3ccccc23)C(=O)O)c1 (stereo unspecified)
 : i, i, i, i

Later entries:
SMILES	STAT3 SMM	mut p53 SMM	ID4 SMM	Myc binder
Cc1noc(C)c1NC(=O)Nc1ccc2c(c1)C(=O)N([C@H](C)CO)C[C@@H](C)[C@H](CN(C)C)OCCCC[C@H](C)O2	i	i	i	i
O=C(C1=C[C@@H](c2coc3ccccc3c2=O)C[C@@H](OCCCCO)O1)N1CCOCC1	i	i	i	i
CN(c1ccccc1C(=O)Nc1cccnc1)S(C)(=O)=O	i	i	i	i
COC(=O)c1ccc([C@@H]2C=C(C(=O)O)O[C@H](OCCCCO)C2)cc1	i	i	i	i
CC(=O)O[C@@H]1CC(C)=C2[C@H]1[C@H](C)CC[C@H]2/C=C(\C)C(=O)O	i	i	nt	i
COC(=O)c1c2oc(c1C(=O)OC)C(=O)N(C)Cc1cn(nn1)C[C@@H](C)NC(=O)N[C@H](CO)CC2	i	i	i	i
COc1ccc(CN(C)C[C@H]2Oc3ccc(NC(=O)Nc4ccc(OC)cc4)cc3CC(=O)N([C@H](C)CO)C[C@H]2C)cc1	i	i	i	i
C=C(C(=O)O)[C@@H]1CC[C@@]2(C)CCC[C@@](C)(O)[C@@H]2C1	i	i	nt	i
O=C(Nc1ccccc1)c1ccc(CSc2nnc(-c3ccncc3)n2-c2ccccc2)cc1	i	i	i	i
COC(=O)C(C(C)c1c[nH]c2ccccc12)[N+](=O)[O-] (stereo unspecified)	i	i	i	i
Cc1c(CCC(=O)O)c(=O)n2c([nH]c3ccccc32)c1C#N	i	i	i	i
CC(C)NC(=O)N(C)C[C@H]1OCc2cnnn2CCCC(=O)N([C@H](C)CO)C[C@H]1C	i	i	i	i
C[C@H](CO)N1C[C@H](C)[C@H](CN(C)CC2CC2)Oc2c(NC(=O)c3ccc(-c4nccs4)cc3)cccc2C1=O	i	i	i	i
C[C@@H]1CCCCO[C@H](CN(C)C)[C@H](C)CN([C@H](C)CO)C(=O)c2cc(NC(=O)c3ccncc3)ccc2O1	i	i	i	i
C[C@@H]1CN([C@@H](C)CO)C(=O)CCCn2cc(nn2)CO[C@H]1CN(C)Cc1cccc2c1OCCCO2	i	i	i	i
Nc1cc2c3ccccc3ccc2c2ccccc12	i	i	i	i
COc1ccc(CN(C)C[C@H]2Oc3ccc(NC(=O)C4CC4)cc3C(=O)N([C@H](C)CO)C[C@H]2C)cc1	i	i	i	i
COc1cccc(-c2cc(=O)c3cc(OC)ccc3o2)c1	i	i	i	i
Cc1noc(C)c1NC(=O)Nc1cccc2c1O[C@@H](CN(C)S(=O)(=O)c1cccs1)[C@@H](C)CN([C@@H](C)CO)C2=O	i	i	i	i
O=C(CSc1n[nH]c(-c2ccco2)n1)Nc1ccc(F)cc1	i	i	i	i
O=C(Nc1ccccc1C(=O)O)c1ncn[nH]1	i	i	i	i
CCOc1c(OC)cc(Cl)cc1C1NC(=O)NC(C)=C1C(=O)Nc1ccccc1C(=O)OC (stereo unspecified)	i	i	i	i
COc1ccc(S(=O)(=O)N(C)C[C@H]2Oc3c(NC(=O)NC4CCCCC4)cccc3C(=O)N([C@H](C)CO)C[C@H]2C)cc1	i	i	i	i
C[C@@H]1CN([C@@H](C)CO)C(=O)Cc2cc(NS(C)(=O)=O)ccc2O[C@@H]1CN(C)Cc1ccc2c(c1)OCO2	i	i	i	i
C[C@@H]1O[C@@H](O[C@H]2[C@H](O[C@H]3CC[C@@]4(C)C(CC[C@]5(C)C4CC=C4C6CC(C)(C)CC[C@]6(C(=O)O)CC[C@]45C)[C@]3(C)CO)OC[C@H](O)[C@@H]2O)[C@H](O)[C@H](O)[C@H]1O (stereo partly specified)	i	i	i	i
(further entries)
SMILES	STAT3 SMM	mut p53 SMM	ID4 SMM	Myc binder
Cc1cc(S(=O)(=O)NCC(=O)O)ccc1F	i	i	i	+
Cc1noc(C)c1NC(=O)Nc1cccc2c1O[C@H](CN(C)S(=O)(=O)c1ccc(Cl)cc1)[C@@H](C)CN([C@H](C)CO)C2=O	i	i	i	i
CC1=CC(C)(C)N2C(=O)C(=O)c3cc(OC(=O)CN4C(=O)c5cccc6cccc(c56)C4=O)cc1c32	i	i	i	i
CC(C)NC(=O)Nc1ccc2c(c1)C(=O)N([C@@H](C)CO)C[C@@H](C)[C@@H](CN(C)C(=O)c1ccccc1)OCCCC[C@H](C)O2	i	i	i	i
CNC[C@@H]1OCCCC[C@H](C)Oc2ccc(NS(=O)(=O)c3cn(C)cn3)cc2C(=O)N([C@H](C)CO)C[C@@H]1C	i	i	i	i
CC(Sc1cccc2cccc(C(=O)O)c12)C(=O)O (stereo unspecified)	i	i	i	i
COc1cc2c(cc1O)C1(O)Cc3ccc4c(c3C1N(C)CC2)OCO4 (stereo unspecified)	i	i	i	i
C[C@@H]1CN([C@@H](C)CO)C(=O)Cc2cc(NC(=O)NC3CCCCC3)ccc2O[C@@H]1CN(C)C(=O)Nc1cccc2ccccc12	i	i	i	i
CC1OC(=O)CC2C(C(=O)O)=CC3(O)CC(C)(C)CC123 (stereo unspecified)	i	i	i	i
C[C@@H]1CCCCO[C@H](CN(C)C(=O)Nc2ccccc2)[C@@H](C)CN([C@H](C)CO)C(=O)c2cc(NC(=O)C3CCCCC3)ccc2O1	i	i	i	i
COC(=O)c1cc(-c2ccccc2)sc1NC(=O)c1cnccn1	i	i	i	i
Cc1cccnc1NC(=O)COc1ccc(Cl)cc1Cl	i	i	i	i
C/C=C1/C(=O)O[C@]2(C)C[C@@H]3OC(=O)C(COC)[C@]34O[C@@]12CC[C@@](C)(O)CC4=O (stereo partly specified)	i	i	nt	i
COc1cc([N+](=O)[O-])ccc1NC(=S)Nc1nn(Cc2ccc(Cl)cc2Cl)cc1Cl	i	i	i	i
C[C@@H]1CN([C@@H](C)CO)C(=O)c2cc(NS(C)(=O)=O)ccc2O[C@H]1CN(C)C	i	i	i	i
C[C@@H]1CN([C@@H](C)CO)C(=O)c2cccc(NC(=O)c3ccncc3)c2O[C@@H]1CN(C)C(=O)Nc1cccc2ccccc12	i	i	i	i
C=C(C(=O)O)[C@@H]1CC[C@H](C)[C@@H]2CC(=O)C(C)=C2C1	i	i	nt	i
COc1ccccc1CCNC(=O)c1c(-c2c(F)cccc2Cl)noc1C	i	i	i	i
C[C@@H]1CN([C@@H](C)CO)C(=O)CCCn2cc(nn2)CO[C@@H]1CN(C)C(=O)Nc1ccc(-c2cccs2)cc1	i	i	i	i
CC(C)NC(=O)Nc1ccc2c(c1)CC(=O)N([C@@H](C)CO)C[C@H](C)[C@H](CN(C)S(=O)(=O)c1cn(C)cn1)O2	i	i	nt	i
Cc1ccc(S(=O)(=O)Nc2ccc3c(c2)C(=O)N([C@H](C)CO)C[C@H](C)[C@@H](CN(C)C(=O)Nc2ccc(F)cc2)OCCCC[C@H](C)O3)cc1	i	i	nt	i
NC(=O)CCCCn1ccc(NC(N)=NCC(F)(F)F)n1	i	i	i	i
O=C(CC1Sc2ccc(Cl)cc2NC1=O)Nc1ccc([N+](=O)[O-])cc1 (stereo unspecified)	i	i	i	i
C[C@@H]1CN([C@H](C)CO)C(=O)Cc2cc(NS(=O)(=O)c3cccs3)ccc2O[C@H]1CN(C)C(=O)Nc1ccc2c(c1)OCO2	i	i	i	i
Cc1noc(C)c1S(=O)(=O)N(C)C[C@H]1Oc2c(NS(=O)(=O)c3ccc(F)cc3)cccc2C(=O)N([C@@H](C)CO)C[C@H]1C	i	i	i	i
COc1cc(NS(=O)(=O)c2ccccc2[N+](=O)[O-])c(OC)cc1Cl	i	i	i	i
C[C@@H]1CN([C@@H](C)CO)C(=O)c2cc(NC(=O)Cn3cnnn3)ccc2O[C@H]1CN(C)Cc1ccc(Cl)c(Cl)c1	i	i	i	i
COc1ccc(S(=O)(=O)Nc2cccc3c2O[C@H](CN(C)Cc2ccc(C(=O)O)cc2)[C@@H](C)CN([C@H](C)CO)C3=O)cc1	i	i	i	i
C[C@@H]1CN([C@@H](C)CO)C(=O)Cc2cc(NS(C)(=O)=O)ccc2O[C@@H]1CN(C)C(=O)Nc1cccc2ccccc12	i	i	i	i

In the list so far, 5 have two or more sulfur atoms:
SMILES	STAT3 SMM	mut p53 SMM	ID4 SMM	Myc binder
C[C@@H]1CCCCO[C@H](CN(C)S(=O)(=O)c2ccccc2)[C@H](C)CN([C@@H](C)CO)C(=O)c2cc(NS(C)(=O)=O)ccc2O1	i	i	i	i
C[C@@H]1CN([C@H](C)CO)C(=O)Cc2cc(NC(=O)Nc3ccc4c(c3)OCO4)ccc2O[C@@H]1CN(C)S(=O)(=O)c1cccs1	i	i	nt	i
Cc1noc(C)c1NC(=O)Nc1cccc2c1O[C@@H](CN(C)S(=O)(=O)c1cccs1)[C@@H](C)CN([C@@H](C)CO)C2=O	i	i	i	i
C[C@@H]1CN([C@H](C)CO)C(=O)Cc2cc(NS(=O)(=O)c3cccs3)ccc2O[C@H]1CN(C)C(=O)Nc1ccc2c(c1)OCO2	i	i	i	i
Cc1noc(C)c1S(=O)(=O)N(C)C[C@H]1Oc2c(NS(=O)(=O)c3ccc(F)cc3)cccc2C(=O)N([C@@H](C)CO)C[C@H]1C	i	i	i	i
